Env fusion inh = blocks HIV Env-driven cell-cell fusion | HeLa-JRFL Env/CEM21 cell fusion, luciferase | inhibition, % at 12.3 µM | 360,000 compounds, 1.1% hits;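 active = mean replicate inhibition score of at least 50 and every replicate individually at or above 50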;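 also: 0% = plate neutral controls and 100% = maraviroc near 300 nM; one replicate is shown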
* marks the source's active call; other numbers are inactive results; [ ] = dose if it differs, or a comment.

Start of the data: the first 6 entries as a preview:
C[C@H](CO)N1C[C@H](C)[C@@H](CN(C)S(=O)(=O)c2ccc(Cl)cc2)Oc2ccc(NS(=O)(=O)c3ccccc3)cc2C1=O
- Env fusion inh: -4[16.7 µM]

CS(=O)(=O)N1Cc2cc(C(=O)NCC3CC3)nc(-c3cccc(-c4cncnc4)c3)c2[C@@H]1CCO
- Env fusion inh: 16[16.7 µM]

C[C@H](NC(=O)C[C@H]1C[C@@H]2c3cc(NC(=O)NC4CCCCC4)ccc3O[C@@H]2[C@H](CO)O1)c1ccccc1
- Env fusion inh: -4[16.7 µM]

COC(=O)C1=C(C)N(Cc2ccc(C(F)(F)F)cc2)C(=NCc2ccccc2C(F)(F)F)NC1c1cccc(Cl)c1 (stereo not given)
- Env fusion inh: -89

CO[C@@H]1CN(C)C(=O)c2cc(NC(=O)C3CC3)ccc2OC[C@H](C)N(C(=O)NC(C)C)C[C@@H]1C
- Env fusion inh: 11[16.7 µM]

OC(c1ccccc1)(c1ccccc1)C1CCN(CCCOc2cccc(F)c2)CC1
- Env fusion inh: 10

All compounds of this part, from the first entry:
C[C@H](CO)N1C[C@H](C)[C@@H](CN(C)S(=O)(=O)c2ccc(Cl)cc2)Oc2ccc(NS(=O)(=O)c3ccccc3)cc2C1=O
- Env fusion inh: -4[16.7 µM]

CS(=O)(=O)N1Cc2cc(C(=O)NCC3CC3)nc(-c3cccc(-c4cncnc4)c3)c2[C@@H]1CCO
- Env fusion inh: 16[16.7 µM]

C[C@H](NC(=O)C[C@H]1C[C@@H]2c3cc(NC(=O)NC4CCCCC4)ccc3O[C@@H]2[C@H](CO)O1)c1ccccc1
- Env fusion inh: -4[16.7 µM]

COC(=O)C1=C(C)N(Cc2ccc(C(F)(F)F)cc2)C(=NCc2ccccc2C(F)(F)F)NC1c1cccc(Cl)c1 (stereo not given)
- Env fusion inh: -89

CO[C@@H]1CN(C)C(=O)c2cc(NC(=O)C3CC3)ccc2OC[C@H](C)N(C(=O)NC(C)C)C[C@@H]1C
- Env fusion inh: 11[16.7 µM]

OC(c1ccccc1)(c1ccccc1)C1CCN(CCCOc2cccc(F)c2)CC1
- Env fusion inh: 10

CC(C)NC(=O)Nc1ccc2c(c1)C(=O)N(C)[C@H]1CC[C@H](CC(=O)NCc3ccc(F)cc3)O[C@H]1CO2
- Env fusion inh: 18[16.7 µM]

CN(C)C(=O)C[C@H]1CC[C@H]2[C@@H](COC[C@@H](O)CN2Cc2ccc(C(F)(F)F)cc2)O1
- Env fusion inh: -8[16.7 µM]

COc1cccc(NC(=O)C[C@H]2CC[C@H]3[C@H](COc4ccc(NC(=O)C5CCOCC5)cc4C(=O)N3C)O2)c1
- Env fusion inh: -18[16.7 µM]

CN(C)C(=O)C[C@H]1C[C@H]2c3cc(NC(=O)CC4CC4)ccc3O[C@H]2[C@H](CO)O1
- Env fusion inh: -16[16.7 µM]

CCCC(=O)OC[C@H]1CN(C2CCCC2)S(=O)(=O)c2c(Oc3ccc(F)cc3)cccc2O1
- Env fusion inh: 5

COC(=O)C[C@H]1C[C@@H]2c3cc(NC(=O)C4CCOCC4)ccc3O[C@@H]2[C@@H](CO)O1
- Env fusion inh: -10[16.7 µM]

CO[C@@H]1CN(C)C(=O)c2cc(NS(=O)(=O)c3cn(C)cn3)ccc2OC[C@H](C)NC[C@@H]1C
- Env fusion inh: 10[16.7 µM]

O=C(Nc1ccc2c(c1)[C@@H]1C[C@H](CC(=O)N3CCc4ccccc4C3)O[C@H](CO)[C@@H]1O2)c1cccnc1
- Env fusion inh: -5[16.7 µM]

O=C(C[C@@H]1C[C@H]2c3cc(NC(=O)C4CCOCC4)ccc3O[C@H]2[C@@H](CO)O1)NCC(F)(F)F
- Env fusion inh: -2[16.7 µM]

C[C@@H]1CN([C@@H](C)CO)C(=O)CCCn2cc(nn2)CO[C@H]1CN(C)Cc1ccc(-c2ccccc2)cc1
- Env fusion inh: 7[16.7 µM]

CN(C)C(=O)C[C@@H]1C[C@@H]2c3cc(NC(=O)c4cccnc4)ccc3O[C@@H]2[C@@H](CO)O1
- Env fusion inh: -15[16.7 µM]

C[C@@H]1CN([C@@H](C)CO)C(=O)Cc2cc(NC(=O)CCCCCC(=O)Nc3ccccc3N)ccc2O[C@@H]1CN(C)C(=O)Nc1ccc(F)cc1
- Env fusion inh: 7[16.7 µM]

CO[C@H]1CN(C)C(=O)c2ccc(NC(=O)Nc3cccc(F)c3)cc2OC[C@@H](C)N(C(C)=O)C[C@@H]1C
- Env fusion inh: 1[16.7 µM]

O=C(C[C@@H]1CC[C@H]2[C@@H](COC[C@H](O)CN2Cc2cccc(Cl)c2)O1)Nc1nccs1
- Env fusion inh: -13[16.7 µM]

COc1ccc(N2C(=O)c3n[nH]c(C)c3C2c2cccc(C(F)(F)F)c2)cc1 (stereo not given)
- Env fusion inh: -4

C[C@@H]1CN([C@H](C)CO)C(=O)c2cc(NC(=O)Cn3cnnn3)ccc2O[C@H]1CN(C)S(=O)(=O)c1ccccc1
- Env fusion inh: 4[16.7 µM]

Cc1noc(C)c1NC(=O)Nc1ccc2c(c1)C(=O)N(C)[C@@H]1CC[C@@H](CC(=O)NCc3ccc(Cl)cc3)O[C@H]1CO2
- Env fusion inh: -2[16.7 µM]

C[C@@H]1CN([C@H](C)CO)C(=O)c2cc(NC(=O)Nc3ccc(F)cc3)ccc2O[C@@H](C)CCCCO[C@@H]1CN(C)C(=O)CCCN(C)C
- Env fusion inh: -2

C[C@@H]1CCCCO[C@H](CN(C)C)[C@H](C)CN([C@H](C)CO)C(=O)c2cc(NC(=O)Nc3ccccc3)ccc2O1
- Env fusion inh: 5[16.7 µM]

CCCN1C[C@H](C)[C@@H](OC)CN(C)C(=O)c2ccc(NC(=O)c3ccc(F)cc3)cc2OC[C@H]1C
- Env fusion inh: -4[16.7 µM]

COc1cccc(-c2ccc3c(c2)[C@H]2[C@H](CCN2C(=O)C2CCCC2)[C@H](CO)N3)c1
- Env fusion inh: 56*[16.7 µM]

O=C(Nc1ccc2c(c1)[C@H]1C[C@H](CC(=O)N3CCc4ccccc4C3)O[C@@H](CO)[C@H]1O2)c1ccc2c(c1)OCO2
- Env fusion inh: 7[16.7 µM]

Cc1ccccc1S(=O)(=O)N1C[C@H](O)COC[C@@H]2O[C@H](CC(=O)NCCc3ccccc3)CC[C@H]21
- Env fusion inh: -19[16.7 µM]

CO[C@@H]1CC[C@H]2CCOc3ccc(C#N)cc3C(=O)N(C)C[C@@H](OC)[C@@H](C)C(=O)N(C)C[C@H]1O2
- Env fusion inh: 2[16.7 µM]

CC(C)NC(=O)N(C)C[C@@H]1Oc2ccc(NC(=O)Cc3cn(C)c4ccccc34)cc2CC(=O)N([C@H](C)CO)C[C@@H]1C
- Env fusion inh: -10[16.7 µM]

COCC(=O)Nc1ccc2c(c1)[C@H]1C[C@H](CC(=O)N[C@H](C)c3ccccc3)O[C@H](CO)[C@H]1O2
- Env fusion inh: -1[16.7 µM]

Cc1nc([N+](=O)[O-])cn1CC(Cl)Cn1cc([N+](=O)[O-])nc1C
- Env fusion inh: 7

COc1ccc(S(=O)(=O)N(C)C[C@H]2Oc3c(NC(=O)Nc4ccc(F)cc4)cccc3C(=O)N([C@@H](C)CO)C[C@@H]2C)cc1
- Env fusion inh: 17[16.7 µM]

CC(C)COC(=O)N(C)C[C@@H]1OCc2ccccc2-c2c(n(C)c3ccccc23)C(=O)N([C@H](C)CO)C[C@@H]1C
- Env fusion inh: 49[16.7 µM]

Cc1cccc2nc(-c3ccccc3)c(-c3ccc(CN4CCC(c5nc6ccccc6[nH]5)CC4)cc3)nc12
- Env fusion inh: 6

O=C(C[C@H]1CC[C@@H]2[C@H](COC[C@H](O)CN2Cc2ccccc2)O1)N1CCOCC1
- Env fusion inh: 5[16.7 µM]

C[C@@H]1CN([C@@H](C)CO)C(=O)c2cc(NS(C)(=O)=O)ccc2O[C@H]1CN(C)C(=O)Nc1cccc2ccccc12
- Env fusion inh: 9[16.7 µM]

CO[C@@H]1CN(C)C(=O)c2ccc(NC(=O)c3cccc(Oc4ccccc4)c3)cc2OC[C@H](C)NC[C@H]1C
- Env fusion inh: 18[16.7 µM]

C[C@H]1CN([C@@H](C)CO)C(=O)c2c(c3ccccc3n2C)-c2ccccc2CO[C@H]1CN(C)S(=O)(=O)c1cn(C)cn1
- Env fusion inh: -10[16.7 µM]

COc1ccc(-c2nc3ccc(C)cn3c2Cc2ccccc2C(F)(F)F)cc1OC
- Env fusion inh: 21

C[C@H]1CN([C@@H](C)CO)C(=O)CCCn2nncc2CO[C@H]1CN(C)Cc1cccnc1
- Env fusion inh: 13[16.7 µM]

CCN1[C@@H]2c3ccc(C4=CCCCC4)c(=O)n3C[C@H]1[C@H](CO)[C@H]2C(=O)NCCOC
- Env fusion inh: 25[16.7 µM]

O=C(C[C@@H]1C=C[C@H](NS(=O)(=O)c2ccccc2)[C@H](CO)O1)NCc1ccc(Cl)c(Cl)c1
- Env fusion inh: -2[16.7 µM]

Cc1ccccc1C(=O)N(C)[C@H]1C[C@H]2c3[nH]c4c(-c5ccc6c(c5)OCO6)cccc4c3CCN2C(=O)[C@H]1[C@H](C)O
- Env fusion inh: -10

COCC(=O)N(C)C[C@@H]1Oc2cc(C#CC3CCCC3)ccc2S(=O)(=O)N([C@@H](C)CO)C[C@@H]1C
- Env fusion inh: 12[16.7 µM]

CNC[C@@H]1OCCCC[C@H](C)Oc2ccc(NC(=O)Nc3cccc4ccccc34)cc2C(=O)N([C@@H](C)CO)C[C@H]1C
- Env fusion inh: 3[16.7 µM]

CC=Cc1ccc2n(c1=O)C[C@@H]1[C@@H](CO)[C@H](C(=O)NCCC)N(Cc3cocn3)[C@H]21 (mixture of isomers)
- Env fusion inh: 2[16.7 µM]

CO[C@H]1CN(C)C(=O)c2cc(NS(=O)(=O)c3cccc(F)c3)ccc2OC[C@@H](C)NC[C@H]1C
- Env fusion inh: -4[16.7 µM]

C[C@@H]1CN([C@H](C)CO)C(=O)CCCn2cc(nn2)CO[C@H]1CN(C)Cc1cccc(O)c1
- Env fusion inh: 17[16.7 µM]

The results go on:
SMILES	Env fusion inh
O=C(C[C@@H]1C[C@@H]2c3cc(NS(=O)(=O)c4ccc(F)cc4)ccc3O[C@@H]2[C@H](CO)O1)NCCN1CCCCC1	5[16.7 µM]
N#Cc1ccc2nc(-c3ccc(CN4CCC(c5nc6ccccc6[nH]5)CC4)cc3)c(-c3ccccc3)nc2c1	28
COc1ccc(CN(C)C[C@H]2OCCCC[C@H](C)Oc3ccc(NS(C)(=O)=O)cc3C(=O)N([C@H](C)CO)C[C@@H]2C)cc1	2[16.7 µM]
O=C(C[C@@H]1C[C@@H]2c3cc(NC(=O)c4ccc5c(c4)OCO5)ccc3O[C@@H]2[C@@H](CO)O1)NCCN1CCCCC1	9[16.7 µM]
COc1ccccc1CCn1cnc(-c2cccc(F)c2)c1C(C)C	-1
O=C(Nc1cccc(F)c1)N[C@H]1CC[C@H](CCNS(=O)(=O)c2cccc(Cl)c2)O[C@H]1CO	29[16.7 µM]
C[C@@H]1CN([C@H](C)CO)C(=O)c2cc(N(C)C)ccc2O[C@@H](C)CCCCO[C@@H]1CN(C)C(=O)Nc1ccc2c(c1)OCO2	10[16.7 µM]
C[C@H]1CN([C@@H](C)CO)C(=O)CCCn2nncc2CO[C@H]1CN(C)Cc1ccc(C(F)(F)F)cc1	30[16.7 µM]
COc1ccccc1-c1ccc2n(c1=O)C[C@H]1[C@H](CO)[C@@H](C(=O)N3CCOCC3)[C@@H]2N1CC1CC1	9[16.7 µM]
O=C(C[C@@H]1C[C@H]2c3cc(NC(=O)C4CCOCC4)ccc3O[C@H]2[C@H](CO)O1)NCCN1CCCCC1	14[16.7 µM]
C[C@H](NC(=O)C[C@@H]1C[C@@H]2c3cc(NC(=O)Nc4ccc(C(F)(F)F)cc4)ccc3O[C@@H]2[C@H](CO)O1)c1ccccc1	5[16.7 µM]
CCCC(=O)Nc1ccc2c(c1)C(=O)N(C)[C@H]1CC[C@@H](CC(=O)NCc3cccc(F)c3)O[C@@H]1CO2	9[16.7 µM]
Cc1cc(C(=O)Nc2ccc3c(c2)C(=O)N(C)[C@@H]2CC[C@@H](CC(=O)NCc4ccc(-c5ccccc5)cc4)O[C@@H]2CO3)no1	2[16.7 µM]
Cc1nc(NC(=O)C(C)(C)C)sc1[N+](=O)[O-]	19
CO[C@@H]1CN(C)C(=O)c2ccc(NS(=O)(=O)CC(F)(F)F)cc2OC[C@@H](C)N(C)C[C@@H]1C	5[16.7 µM]
CCCCNC(=O)C[C@H]1C[C@@]2(C(=O)OC)C(=C[C@H](C(C)(C)C)O[C@@H]2C)N(Cc2ccc3c(c2)OCO3)C1=O	82*
COc1ccc(S(=O)(=O)Nc2ccc3c(c2)C(=O)N([C@@H](C)CO)C[C@@H](C)[C@@H](CN(C)C)OCCCC[C@H](C)O3)cc1	-24[16.7 µM]
COc1ccc(NC(=O)Nc2ccc3c(c2)[C@H]2C[C@H](CC(=O)N4CCN(C)CC4)O[C@@H](CO)[C@H]2O3)cc1	10[16.7 µM]
COc1ccc2c3c([nH]c2c1)[C@H](CO)N(C(=O)C1CC1)CC31CCN(C)CC1	5[16.7 µM]
COc1ccc2c3c(n(C)c2c1)[C@H](CO)N(C(C)=O)CC31CCN(C(=O)C2CC2)CC1	-13[16.7 µM]
CO[C@@H]1CN(C)C(=O)c2cc(NC(=O)C3CC3)ccc2OC[C@H](C)N(CCc2ccccc2)C[C@@H]1C	-9[16.7 µM]
CO[C@@H]1CN(C)C(=O)c2cc(NC(=O)Nc3ccc(Cl)c(Cl)c3)ccc2OC[C@@H](C)NC[C@@H]1C	5[16.7 µM]
C[C@H](CO)N1C[C@H](C)[C@H](CN(C)C(=O)c2ccncc2)Oc2ncc(C#CC3CC3)cc2C1=O	-37[16.7 µM]
C[C@@H]1CCCCO[C@H](CN(C)CC2CC2)[C@@H](C)CN([C@H](C)CO)C(=O)c2cc(NC(=O)Nc3ccc4c(c3)OCO4)ccc2O1	6[16.7 µM]
Cc1noc(C)c1S(=O)(=O)Nc1ccc2c(c1)C(=O)N([C@H](C)CO)C[C@H](C)[C@@H](CN(C)C(=O)Nc1ccc(F)cc1)O2	9[16.7 µM]
C[C@@H]1CN([C@H](C)CO)C(=O)Cc2cc(NS(=O)(=O)c3ccccc3)ccc2O[C@H]1CN(C)Cc1ccc(C(=O)O)cc1	5[16.7 µM]

Some of the compounds tested, so the mix of outcomes need not match the whole.
